Screening results deposited in PubChem BioAssay by Southern Research Institute.
Mtb growth = Mycobacterium tuberculosis H37Rv growth inhibition, putative kinase inhibitor library, confirmatory dose response (AID 2842); 24,000 compounds, 5.2% hits; one-dose inhibition, % at 10 µg/mL; IC90 in µg/mL for titrated hits; M. tuberculosis H37Rv growth inhibition; higher % means a stronger effect; some inactives read as strong as hits;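 active = confirmed in a dose series; inconclusive = mostly over 85% at the one dose but not retested; inactive = below 85% or not confirmed; about a fifth of its hits are not listed in these tables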;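 note: bacteria incubated one week before Alamar blue readout; 0% = bacteria only wells and 100% = bacteria with high antibiotic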
* hit, by the source's call; ? = inconclusive. Some of the compounds tested. The share of hits here may be higher or lower than overall.

SMILES	Mtb growth
COc1cc(/C=N/Nc2ncnc3nc[nH]c23)cc(Br)c1O	-10%
c1ccc2c(c1)CCN(c1nc3cc4c(cc3s1)OCCO4)C2	16µg/mL*
CC(=O)c1sc(NC(=O)c2ccccc2Oc2ccccc2)nc1-c1ccccc1	3%
O=C1/C(=C/c2ccc(Cl)cc2Cl)Oc2cc(O)ccc21	-5%
Cc1ccc(S(=O)(=O)c2nnn3c2nc(NCc2ccc(F)cc2)c2ccccc23)c(C)c1	-1%
COc1cccc(CNC(=O)CCCc2nnc3n(C)c(=O)c4sccc4n23)c1	1%
c1ccc(CSc2ncnc3nc[nH]c23)cc1	19µg/mL*
COc1ccc(C(=O)Nc2nnc(C3=COCCO3)o2)cc1OC	?
CC(C)(C)C(=O)Nc1ccc2c(c1)C(=O)NC2=O	-16%
CCOc1ccccc1NC(=O)c1oc2ccccc2c1NC(=O)c1ccccc1Cl	-9%
COc1ccc(-c2nnc3c4cc5c(cc4n(Cc4cccc(F)c4)cc2-3)OCCO5)cc1	2%
NNC(=O)C1CCCN(S(=O)(=O)c2ccc(Cl)cc2)C1 (stereo unspecified)	4%
COc1ccc(NC(=O)c2oc3ccccc3c2NC(=O)c2cccc(F)c2)cc1OC	4%
O=C(Nc1ccc2c(c1)C(=O)NC2=O)c1cccc(F)c1	-18%
CCCCCCn1c(SCc2ccccc2Cl)nc2c1c(=O)n(C)c(=O)n2C	-6%
COc1cc2c(=O)c(S(=O)(=O)c3ccc(F)cc3)cn(Cc3ccccc3C)c2cc1OC	6%
Cc1nc2sc(C(c3ccco3)N3CCOCC3)c(O)n2n1 (stereo unspecified)	-11%
CC(c1ccccc1)n1cnc2c(cnc3nc4ccccc4n32)c1=O (stereo unspecified)	-2%
CC1C(=O)N2CCCc3cc(NC(=O)C(=O)NCc4ccccn4)cc1c32 (stereo unspecified)	-3%
O=C(CSc1nc2[nH]ncc2c(=O)n1-c1ccc(Cl)cc1)Nc1ccc(Br)cc1F	6%
CCOc1ccccc1C(=O)NCCc1cc2c(OC)ccc(OC)c2[nH]c1=O	16%
O=C(CCc1n[nH]c(=O)[nH]c1=O)N/N=C/c1ccccc1	2%
Cc1[nH]c2ccc(N3CCOCC3)cc2c(=O)c1CN1CCOCC1	0%
Cc1c(C)n2c(SCc3ccc(Cl)cc3)nnc2[nH]c1=O	3%
O=C(CSc1nc2ccccc2c(=O)[nH]1)Nc1ccc(Cl)cc1	8%
CCOC(=O)N1CCN(C(=O)CSc2nnc3[nH]c(=O)c(C)c(C)n23)CC1	-17%
Cc1ccc2c(c1)NC(SCC(=O)Nc1cc(F)ccc1F)=NS2(=O)=O	-12%
CC1=C(C(N)=O)C(c2ccc3c(c2)OCO3)NC(=O)N1 (stereo unspecified)	-1%
O=c1[nH]cc(S(=O)(=O)N2CCN(c3ccc(F)cc3)CC2)c(=O)[nH]1	-1%
Cn1cnnc1SCC(=O)Nc1nnc(-c2ccc(Br)cc2)s1	-6%
O=C(NCCc1csc2nc(-c3ccc(Cl)cc3)nn12)c1ccc2ccccc2c1	0%
O=C(Nc1nc(-c2ccccn2)cs1)c1cc(=O)c2ccccc2o1	11%
Cc1[nH]c2ccccc2c1SCC(N)=O	2%
CCOc1ccccc1C(=O)Nc1nnc(SCC(=O)N2CCOCC2)s1	-2%
O=c1[nH]c(N/N=C/c2ccccc2O)nnc1-c1ccccc1	51%
Cc1cc(Cl)cc2sc(N(CCN3CCOCC3)C(=O)c3ccc(C#N)cc3)nc12	-4%
COc1cc(/C=N/Nc2nccs2)ccc1O	68%
COc1ccc2sc(Nc3nc(-c4nc5ccccc5s4)cs3)nc2c1	9%
Cn1c(=O)c2c(SCc3cccc(C(F)(F)F)c3)nc(-c3ccc([N+](=O)[O-])cc3)nc2n(C)c1=O	-4%
Nc1ncnc(Nc2cccc(F)c2)c1[N+](=O)[O-]	-2%
C=C(C)Cn1c(N2CCN(Cc3ccccc3Cl)CC2)nc2c1c(=O)[nH]c(=O)n2C	-3%
O=C(O)c1cccnc1-c1nc2ccccc2s1	-7%
CC(=O)c1c(C)oc2c1cc(NS(=O)(=O)c1ccc3c(c1)oc(=O)n3C)c1ccccc12	-21%
Cc1c(C)n2c3c(=O)n(C)c(=O)n(C)c3nc2n1CC(=O)OCc1ccccc1	-9%
Cc1ccccc1-c1nnc(NC(=O)CSc2nncn2C)s1	8%
CCOC(=O)CSc1nc2sc(C(=O)O)c(C)c2c(=O)[nH]1	-2%
COc1ccc(C(=O)COC(=O)CSc2nc3ccccc3s2)cc1	6%
CCCc1cc(=O)[nH]c2nnc(SCc3ccc(Br)cc3)n12	5%
Clc1ccc(CSc2nnc3ccc(-c4ccncc4)nn23)cc1	2%
O=C(O)CCN1C(=O)C2C3c4ccccc4C(c4ccccc43)C2C1=O (stereo unspecified)	-15%
CCc1nnc(NC(=O)c2ccccc2C(F)(F)F)s1	-3%
Cc1cccc(-n2c(CNC(=O)COc3ccccc3)nnc2SCC(=O)Nc2nnc(C)s2)c1	3%
NC(=O)c1oc2ccccc2c1NC(=O)/C=C/c1ccccc1Cl	1%
Cn1c(=O)c2c(nc(SCCCO)n2Cc2ccccc2)n(C)c1=O	5%
Cc1ccc(NC(=O)c2cnc3scc(C)n3c2=O)cc1	-4%
Cc1csc(NC(=O)CSc2ccc3nnc(-c4ccccc4)n3n2)n1	-9%
Cc1cc(C)nc(SCC(=O)Nc2ncc(Cc3ccccc3Cl)s2)n1	3%
Cc1[nH]c2ccccc2c1SCCNC(=O)c1cc2ccccc2oc1=O	<0.2µg/mL*
CS(=O)(=O)N(c1ccccc1)C1CCS(=O)(=O)C1 (stereo unspecified)	-7%
COc1ccc(OCC(=O)Nc2ccc3c(c2)C(=O)Nc2ccccc2O3)cc1	4%
The list continues:
SMILES	Mtb growth
CCOc1ccc2c(c1)c1nnc(-c3ccc4c(c3)OCO4)c-1cn2Cc1cccc(F)c1	24%
COCCOC(=O)c1sc2ncn(CC(N)=O)c(=O)c2c1C	2%
Cn1c(=O)c2c(SCc3cccc(C(F)(F)F)c3)nc(-c3cccs3)nc2n(C)c1=O	-6%
CCc1cccc(CC)c1NC(=O)c1ccc([N+](=O)[O-])cc1Cl	-2%
Clc1cccc(N2CCN(c3nc(Nc4ccccc4)c4nccnc4n3)CC2)c1	4.6µg/mL*
O=C(CSc1nnc2ccc(-c3cccc([N+](=O)[O-])c3)nn12)N1CCc2ccccc21	13%
O=C(Nc1nnc(-c2cccc([N+](=O)[O-])c2)s1)c1ccccc1C(F)(F)F	0%
COc1cc(OC)cc(C(=O)Nc2nc3ccc4nc(SC)sc4c3s2)c1	-1%
COc1ccc(C)cc1NC(=O)c1cnc2n(c1=O)CCS2	7%
COC(=O)c1ccccc1NC(=O)/C(C#N)=C/c1ccc(OC(=O)c2ccc(C)cc2)cc1	-8%
COc1cccc(C(=O)COC(=O)c2cc3cc(Br)cc(OC)c3oc2=O)c1	-1%
CCCCC(=O)Nc1sc2c(c1C(N)=O)CCN(C(=O)OCC)C2	6%
CCCn1ccc2c(OCC(N)=O)cccc2c1=O	-11%
O=C(NCC(c1cccs1)N1CCOCC1)c1ccc2c(c1)OCO2 (stereo unspecified)	4%
COc1ccc(-c2nnc(NCCc3ccccc3)[nH]c2=O)cc1	0%
COc1ccc(NC(=O)c2ccc(Cn3c(=O)[nH]c4ccsc4c3=O)cc2)cc1	1%
CCOc1ccc2c(c1)c1nnc(-c3ccc4c(c3)OCO4)c-1cn2Cc1ccc(F)cc1	9%
Cn1c(=O)c2c(SCC(=O)N3CCc4ccccc43)nc(C3CCCC3)nc2n(C)c1=O	-8%
Cc1ccc(C)c2[nH]c(=O)c(CCNC(=S)Nc3cccc(Br)c3)cc12	14%
NC(=O)c1nc(-c2ccco2)nc2c1[nH]c(=O)n2-c1ccc(F)cc1	22%
Cc1cc(C)c(C(=O)c2sc3nc(C)cc(C)c3c2N)c(C)c1	7%
Cc1ccccc1NC(=O)CN1C(=O)S/C(=C\C(=O)Nc2ccccc2)C1=O	1%
Cn1c(=O)c2[nH]c(SCC(=O)c3ccc(Cl)cc3)nc2n(C)c1=O	15%
O=C(CSc1ccc2nnc(-c3ccc(Cl)cc3)n2n1)NC1CCCCC1	10%
O=C(Nc1nnc(-c2ccc(Br)cc2)s1)c1cccc(Cl)c1	6%
Cc1ccc(C)c(S(=O)(=O)Nc2ccc(O)c3ccccc23)c1	-16%
Cc1ccc(C(=O)NC2CC(=O)N(c3ccc4c(c3)OCCO4)C2)cc1[N+](=O)[O-] (stereo unspecified)	2%
Cc1cc2nc[nH]c2cc1C	-4%
CCOC(=O)c1nn(-c2ccc(C)cc2)c(=O)c2c(NC(=O)c3ccc4c(c3)OCO4)scc12	-1%
Cc1ccc(C(=O)Nc2cc(C)c3c(=O)oc4ccccc4c3n2)cc1	3%
O=C(NC(=S)Nc1ccc2[nH]c(=O)[nH]c2c1)c1cccc(F)c1	-11%
O=c1c2nnn(-c3ccc(OC(F)(F)F)cc3)c2ncn1Cc1cccc(Cl)c1	-4%
O=C(Nc1cc2c3c(c1)CCN3C(=O)CC2)C(=O)Nc1ccc2c(c1)OCCO2	26%
O=C(Nc1ccncc1)c1ccc(S(=O)(=O)NC2CC2)cc1	13%
O=C(Cc1ccccc1)N(CCCn1ccnc1)c1nc2c(F)cccc2s1	7.4µg/mL*
CCc1ccc(N2CC(C)Cn3c2nc2c3c(=O)[nH]c(=O)n2C)cc1 (stereo unspecified)	6%
O=C(OCc1nc2ccccc2s1)c1cccc(N2C(=O)CCC2=O)c1	3%
CC(=O)N1CCc2c(sc(NC(=O)c3ccccc3F)c2-c2nc3ccccc3s2)C1	4%
Cn1ncc2c(NNC(=O)Cc3cccc4ccccc34)ncnc21	4%
O=C(NCc1ccc(F)cc1)NC1CC(=O)N(c2ccccc2)C1 (stereo unspecified)	1%

Two of the compounds above, in markdown:
| structure | Mtb growth |
| --- | --- |
| COc1cc(OC)cc(C(=O)Nc2nc3ccc4nc(SC)sc4c3s2)c1 | -1% |
| COc1ccc(C)cc1NC(=O)c1cnc2n(c1=O)CCS2 | 7% |

Additional results follow.
SMILES	Mtb growth
COc1ccc2oc(=O)c(-c3csc(Nc4ccc(C)cc4)n3)cc2c1	-7%
CCOc1ccc(-c2nnc3c4cc(OC)ccc4n(Cc4ccc(F)cc4)cc2-3)cc1	8%
CCOC(=O)CSCc1nc2ccccc2c(=O)[nH]1	-20%
Cc1cc2nnc(SCC(=O)NCc3ccco3)n2c2ccccc12	-7%
Cc1ccc(NC(=O)c2cnc3scc(C)n3c2=O)cc1Cl	0%
Cc1ccc(NCCCn2c(C)c(C)n3c4c(=O)[nH]c(=O)n(C)c4nc23)c(C)c1	14µg/mL*
O=C1CN(C(=O)COc2ccccc2)C(c2ccc(F)cc2)c2cc(F)ccc2N1 (stereo unspecified)	-1%
CCOc1ccc(C(=O)Nc2nnc(SCC(=O)Nc3nccs3)s2)cc1OCC	12%
O=C(NNc1ncnc2c1cnn2-c1cccc(Cl)c1)c1cccc([N+](=O)[O-])c1	?
COC(=O)c1ccccc1NS(=O)(=O)c1cc2c3c(c1)CCC(=O)N3CCC2	-7%
COc1ccc(NC(=O)c2nnn(-c3ccccc3C)c2C)cc1OC	9%
O=C(Nc1cccc(-c2ccc3nncn3n2)c1)c1cccc(Cl)c1	-7%
O=C(Nc1nnc(-c2ccc(F)cc2)s1)c1cccc(Br)c1	8%
CCOC(=O)c1ccc(N=c2oc3c(C)ncc(CO)c3cc2C(N)=S)cc1	81%
COc1cc(OC)nc(NS(=O)(=O)c2ccc(NC(=O)c3ccco3)cc2)n1	6%
CCCn1c(N2CCN(Cc3ccccc3)CC2)nc2c1c(=O)[nH]c(=O)n2C	-7%
COc1cccc(C(=O)Nc2c3c(nn2-c2ccc(F)cc2)CS(=O)C3)c1OC (stereo unspecified)	0%
COc1ccc(NCCn2c(C)cn3c4c(=O)[nH]c(=O)n(C)c4nc23)cc1	6%
Cc1nnc(NC(=O)COc2ccc(Cl)cc2)s1	-2%
Cc1ccc(-n2ncc3c(NNC(=O)c4ccc(Cl)cc4)ncnc32)cc1	75%
Cc1ccc(C(=O)c2cnc3cc4c(cc3c2S(=O)(=O)c2ccc(C)cc2)OCO4)cc1	-2%
CCC(Sc1nncn1C)C(=O)Nc1nnc(-c2cccc([N+](=O)[O-])c2)s1 (stereo unspecified)	7%
COC(=O)c1c(NC(=O)c2ccc3c(c2)CCCC3)sc2c1CCN(C(C)=O)C2	6.2µg/mL*
Cn1cnnc1SCc1cc(=O)c(OCc2ccc(F)cc2)co1	-9%

Among those listed so far, 16 have two or more sulfur atoms.
SMILES	Mtb growth
Cc1ccc2c(c1)NC(SCC(=O)Nc1cc(F)ccc1F)=NS2(=O)=O	-12%
Cn1cnnc1SCC(=O)Nc1nnc(-c2ccc(Br)cc2)s1	-6%
CCOc1ccccc1C(=O)Nc1nnc(SCC(=O)N2CCOCC2)s1	-2%
COc1ccc2sc(Nc3nc(-c4nc5ccccc5s4)cs3)nc2c1	9%
Cc1ccccc1-c1nnc(NC(=O)CSc2nncn2C)s1	8%
CCOC(=O)CSc1nc2sc(C(=O)O)c(C)c2c(=O)[nH]1	-2%
COc1ccc(C(=O)COC(=O)CSc2nc3ccccc3s2)cc1	6%
Cc1cccc(-n2c(CNC(=O)COc3ccccc3)nnc2SCC(=O)Nc2nnc(C)s2)c1	3%
Cc1csc(NC(=O)CSc2ccc3nnc(-c4ccccc4)n3n2)n1	-9%
Cc1cc(C)nc(SCC(=O)Nc2ncc(Cc3ccccc3Cl)s2)n1	3%
CS(=O)(=O)N(c1ccccc1)C1CCS(=O)(=O)C1 (stereo unspecified)	-7%
Cn1c(=O)c2c(SCc3cccc(C(F)(F)F)c3)nc(-c3cccs3)nc2n(C)c1=O	-6%
COc1cc(OC)cc(C(=O)Nc2nc3ccc4nc(SC)sc4c3s2)c1	-1%
CC(=O)N1CCc2c(sc(NC(=O)c3ccccc3F)c2-c2nc3ccccc3s2)C1	4%
CCOc1ccc(C(=O)Nc2nnc(SCC(=O)Nc3nccs3)s2)cc1OCC	12%
CCC(Sc1nncn1C)C(=O)Nc1nnc(-c2cccc([N+](=O)[O-])c2)s1 (stereo unspecified)	7%
